Source: PubChem (several laboratories)
Sa ugtP lethal: growth inhibition of ugtP-null S. aureus, primary screen, RN4220 ugtP deletion, OD600 | 16 h; some inactives read as strong as hits | 0.54% of 330,000 active | growth inhibition, % (test concentration not listed);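 active = z-score under -3 and OD600 up to 0.15 on both plates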;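 note: plate controls were untreated wells for no effect and antibiotic for full effect; wells of about 80 µL received 100 nL stock; the first replicate is given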
BJeLR lethal: MLPCN primary cell-based screen for lethality selective to Ras in HRASV12 cells. 0.17% of 300,000 active. inhibition, % (test concentration not listed). BJeLR (HRASV12) viability, CellTiter-Glo ATP luminescence, 48 h; reference of the scale not given here;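 active = replicate mean above 50%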;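 note: 50 nL library stock added to about 25 µL; numbers are from one replicate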
PrP 5UTR inh: inhibition of PrP 5' UTR reporter expression; 0.35% of 340,000 active; cell-based PrP 5' UTR mRNA reporter, plate reader; AID 488862, 2010; inhibition, % (test concentration not listed);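 active = every replicate at 50% or more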;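 note: 0 = median of the neutral control wells; tested in H4 reporter cells; numbers are from one replicate; inactives centre near -14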
Mtb hypoxia inh: PubChem AID 1159583. fluorescence inhibition, % (test concentration not listed). M. tuberculosis hypoxia-regulated fluorescent reporter, fluorescence. 0.1% of 300,000 active;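 active = 35 to 45% if threefold the growth effect, above 45% if 1.5-fold the growth effect; inactive = the rest, general growth blockers included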;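 note: wells of about 50 µL received 100 nL stock; 0% = vehicle wells and 100% = reference inhibitor wells; whole bacteria with a GFP reporter of the hypoxia response; strong numbers were not always called active; many hits fall short of the cut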
Bead autofluor: flagged as autofluorescent in microsphere protease counterscreen | compound autofluorescence counterscreen, microsphere flow cytometry; hits give high values | fluorescence intensity (concentration not given with the values) | 3.1% of 360,000 active | AID 624483;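 active = at least 3 SD above the mean of all compounds, about 16000 in these data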;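 note: 100 nL of 1 mM stock went into each well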
RN4220 kill: growth inhibition of S. aureus RN4220, primary screen, OD600 | 16 h | inhibition, % (test concentration not listed) | 0.33% of 330,000 active;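 active = z-score of -3 or lower and OD600 up to 0.18 on both plates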;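 note: plate controls were untreated cells for no effect and reference antibiotic for full effect; stock transfer was 100 nL into about 80 µL; one replicate is shown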
Mtb hypoxia inh growth: further read-out of Mtb hypoxia inh, marked with its call; growth inhibition, %; measured here: M. tuberculosis growth (absorbance);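 0% = vehicle and 100% = reference antibiotic; read after six days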
Active calls of the source: *; / = not tested or not shown.

SMILES	Sa ugtP lethal	BJeLR lethal	PrP 5UTR inh	Mtb hypoxia inh	Mtb hypoxia inh growth	Bead autofluor	RN4220 kill
Cc1ccccc1CN(c1ccc(C(=O)Nc2ccccc2C(=O)N2CCCC2)cc1)S(C)(=O)=O	8.5	0.2	-24.4	7.6	11.7	4233	3.6
CS(=O)(=O)N(CC(=O)NCc1ccc2c(c1)OCO2)c1ccc(Cl)cc1	-8.9	-12.3	-17.0	8.3	14.5	4399	-0.9
CC(C)NC(=O)c1cc(-c2ccc3c(c2)OCO3)on1	4.3	-3.6	-90.4	-4.2	-2.0	3483	2.2
C=CCn1c(SCC(=O)c2ccc(Br)cc2)nnc1C(C)NC(=O)Cc1ccc(OC)cc1 (stereo unspecified)	-28.3	2.5	-37.5	-0.2	15.0	23186*	4.6
COC(=O)c1c(-c2ccc(SC)cc2)sc2ccc(OC)cc12	13.9	/	-65.8	4.6	12.1	4027	3.3
COc1cc(/C=N\NC(=O)c2ccc(Cn3cc(Br)c([N+](=O)[O-])n3)o2)cc(OC)c1O	/	11.2	-6.4	/	/	2475	/
CCCn1c(C(C)Nc2nc(-c3ccc(C)cc3)cs2)nc2ccccc21 (stereo unspecified)	-5.6	2.6	-11.4	4.1	10.7	3207	-9.3
CCOC(=O)Cc1csc(NC(=O)COc2ccccc2)n1	-3.3	/	-9.5	-25.4	-6.3	22960*	0.3
Cc1cc(S(=O)(=O)NC2CCCCC2)c(C)s1	-4.8	-1.8	2.1	10.7	8.6	9219	-1.1
S=c1[nH]nc(COc2ccccc2)n1/N=C/c1cccc(Cl)c1Cl	/	2.6	-28.3	/	/	3633	/
O=C(CCSc1nc(-c2ccco2)cc(C(F)(F)F)n1)NCc1ccccn1	-0.1	-8.3	-1.9	14.3	8.6	3175	4.5
O=C(CSc1ccccc1)Nc1ccccc1C(=O)O	-0.8	-5.7	-12.7	9.4	5.6	8950	2.5
Cc1noc(C(=O)NCc2ccccc2)c1Cl	14.7	5.5	-1.4	9.8	11.8	4358	-0.9
CN1CCN(c2ccc([N+](=O)[O-])cc2C(=O)N2CCOCC2)CC1	-1.0	4.5	-1.8	/	/	/	0.2
COC(=O)c1cc(NC(=O)C23CCC(C)(C(=O)O2)C3(C)C)cc(C(=O)OC)c1 (stereo unspecified)	-2.4	-1.4	-24.2	8.9	18.6	4669	4.1
COCCCNC(=O)/C(C#N)=C/c1ccc(OCC(=O)O)c(OC)c1	6.3	-19.3	-24.4	13.6	9.6	2495	5.0
Cc1cccn2c(=O)c(C=O)c(N3CCN(c4ccccc4)CC3)nc12	2.1	-1.9	-4.1	7.7	3.6	2393	2.6
OCC[C@@H]1NCc2cc(CO)cc(-c3ccccc3)c21	-3.9	/	-17.0	-8.2	9.4	3698	7.5
Cc1ccc(NC(=O)COC(=O)c2cc(-c3cccs3)nn2-c2ccccc2)cc1[N+](=O)[O-]	6.4	17.9	-21.8	0.7	2.2	2467	6.6
C#CCSc1nnc(-c2sc3ccccc3c2Cl)o1	19.5	/	-103.3	-1.0	5.3	19577*	6.1
CCC(C)(C(=O)NC1CCCCC1)N(C(=O)CC1NC(=O)NC1=O)c1c(C)n(C)n(-c2ccccc2)c1=O (stereo unspecified)	-58.3	-0.4	-28.5	3.0	8.5	5196	11.4
O=C(O)CNC(=S)N(Cc1ccccc1F)C1CCCCC1	-0.5	-5.3	-18.4	7.8	9.0	4367	8.7
Cn1c(SCC(=O)N2CCN(S(=O)(=O)c3ccc(Cl)cc3)CC2)nc2ccccc21	-25.9	-7.3	-46.7	2.0	11.5	10265	-2.5
Cc1ccc(OCCCC(=O)N2CCN(S(=O)(=O)c3cccc(F)c3)CC2)cc1	3.7	-0.6	-2.5	-0.7	0.5	6660	2.1
O=C(OCC(=O)N(C1CCCCC1)C1CCCCC1)c1ccncc1	5.9	2.9	-13.2	/	/	5224	0.5
Cc1ccc(C(c2nnnn2Cc2ccccc2)N2CCN(Cc3ccccc3)CC2)cc1 (stereo unspecified)	5.8	0.7	0.5	/	/	4062	2.9
CC(=O)Nc1ccc(NC(=O)c2cccc(-c3cc4ccccc4oc3=O)c2)cc1	5.4	-0.9	-22.9	15.0	-4.5	5007	5.4
O=C(O)c1ccc(Cl)nc1	0.2	-3.7	-11.5	9.3	6.5	2696	5.2
Cc1ccc2cc(CN(CCCN3CCOCC3)C(c3nnnn3Cc3ccco3)C(C)C)c(=O)[nH]c2c1C (stereo unspecified)	0.5	1.6	/	5.2	-5.8	10630	2.7
COc1ccc(C2=CSC(/N=C/c3ccc(F)cc3)=NN2)cc1	/	8.7	-28.0	/	/	4502	/
CC(=NNc1ccccc1)c1c(O)cc(C)oc1=O	7.8	/	/	5.3	2.5	/	2.0
C/C(C=NNc1nc2ccccc2[nH]1)=C\c1ccccc1	-8.4	/	/	-10.2	-2.8	/	11.9
O=C1[C@@H]2[C@@H]3C[C@@H]([C@H]4ON=C(c5ccc(OCc6ccccc6)cc5)[C@@H]34)[C@@H]2C(=O)N1c1ccc2c(c1)OCO2	0.8	-4.3	5.9	5.1	-2.5	2172	9.6
CC(C)(C)S(=O)N1Cc2cn(Cc3ccccc3)c(=O)cc2[C@H]1CCO (stereo partly specified)	7.5	/	-13.4	-0.8	6.1	3055	2.8
NC(=O)CC(NC(=O)Cc1ccc(Br)cc1)c1ccc(N2CCN(c3ccc(F)cc3)CC2)c([N+](=O)[O-])c1 (stereo unspecified)	8.9	0.8	-46.3	11.4	14.8	3868	-7.2
Cc1ccc(-n2[nH]c(C)c(C=Nn3c(C)nc4ccccc4c3=O)c2=O)cc1	-4.9	/	/	0.6	12.6	/	16.5
Cc1c(CN2CCCCC2)c(O)n(CCCO)c(=O)c1C#N	5.0	0.5	-5.1	7.2	8.1	2567	5.5
COc1ccc(C(=O)NN=Cc2ccc(N3CCOCC3)o2)cc1OC	1.1	/	/	12.9	-2.4	/	0.7
CCCc1cc(=O)oc2cc(OCC(=O)NCCCN3CCCC3=O)ccc12	2.0	11.7	-25.9	5.4	-7.4	7136	-0.6
COc1cc(CNC(C)(C)CO)ccc1OCC(=O)NC(C)(C)C	0.8	13.3	-3.9	6.4	2.7	2014	0.5
CCCc1cc(=O)n2[nH]c(C)c(-c3ccc(Cl)cc3)c2n1	/	-1.1	-20.4	/	/	3751	/
S=C1NCC(c2ccccc2)N1CC1CCCCC1 (stereo unspecified)	1.4	/	/	-1.6	-7.1	/	7.1
COc1ccc(C2CC(=O)C=C(c3ccc(C(=O)O)cc3)C2)cc1OC (stereo unspecified)	2.5	/	/	6.6	1.7	/	8.4
COc1cccc(OCc2cc(/C=N/NC(=O)c3nc(Cl)c(Cl)c(N)c3Cl)ccc2OC)c1	/	5.8	-25.1	/	/	2536	/
CCN(C[C@H]1N[C@@](Cc2ccccc2)(C(=O)OC)[C@H]2C(=O)N(Cc3ccccc3)C(=O)[C@@H]12)S(=O)(=O)c1ccc(OC)cc1	2.2	/	-19.9	-5.0	12.1	3429	3.5
COc1ccc(CNS(=O)(=O)c2ccc(OC)cc2)cc1	6.0	-10.3	-1.3	/	/	2583	2.7
CCCc1[nH]nc2c1C(c1ccc(OCCN3CCOCC3)c(OC)c1)C(C#N)=C(N)O2 (stereo unspecified)	5.1	3.9	-40.4	/	/	4853	0.6
c1ccc(Oc2nc(N3CCOCC3)nc(N3CCOCC3)n2)cc1	5.6	4.2	-0.9	-5.6	-5.3	10917	0.2
Nc1nc(SCC(=O)NCC2CCCO2)[nH]c(=O)c1NC(=O)c1ccco1 (stereo unspecified)	-4.6	-10.9	-28.4	3.6	-0.6	5862	3.7
O=[N+]([O-])c1ccc(Nc2ccccn2)c([N+](=O)[O-])c1	8.6	7.8	-6.6	7.7	5.0	3299	39.8
CN(Cc1ccccc1)S(=O)(=O)c1ccc(Cl)c(C(=O)N2CCC2)c1	6.8	/	3.8	1.9	-3.6	2938	6.4
CC(C)(C)/C(O)=C/c1nc2ccccc2[nH]c1=O	2.5	5.5	-12.6	4.0	-5.3	2101	-2.9
CC(C)=CCC/C(C)=C/CNC(=O)CC1C[C@H](C(=O)N2CCOCC2)[C@@]2(C)c3[nH]c4ccccc4c3CCN2C1=O (stereo partly specified)	2.8	/	-10.9	-10.7	2.9	4007	3.9
N#Cc1cnc(N)c(Br)c1	4.2	3.0	4.7	2.4	-0.2	4502	0.4
CCNC(=S)Nc1cc(C)ccn1	1.4	3.7	-12.0	3.9	4.3	1931	7.7
O=C(COC(=O)c1ccc(Br)cc1)Nc1ccccc1Br	-3.6	-5.3	-13.2	13.2	0.2	4851	6.7
Cc1nn(CC(=O)Nc2ccc(S(N)(=O)=O)cc2)c(=O)c2ccccc12	2.8	6.2	-11.8	10.0	9.0	3935	0.7
NC(=O)NC(=O)COC(=O)c1ccc(Cl)c(S(=O)(=O)N(Cc2ccccc2)c2ccc(Cl)cc2)c1	12.6	2.7	-0.9	10.8	1.0	2184	-7.2
COc1ccc(C(=O)Nc2cc3c4c(c2)CC(=O)N4CCC3)c(OC)c1	-0.1	11.5	-49.6	2.6	12.8	/	2.0
Cc1cccc2c1[nH]c1nc(NN=Cc3ccco3)nnc12	0.7	/	/	0.5	7.6	/	2.6

More compounds.
SMILES	Sa ugtP lethal	BJeLR lethal	PrP 5UTR inh	Mtb hypoxia inh	Mtb hypoxia inh growth	Bead autofluor	RN4220 kill
CCOC(=O)C(Cc1ccccc1)(Cc1ccccc1)C(C)=O	23.6	-5.3	-14.4	10.2	13.3	3705	1.0
COc1ccc(C=NNC(=O)c2ccccc2OC)cc1COc1ccccc1[N+](=O)[O-]	5.0	/	/	1.6	-1.5	/	4.2
COc1ccc(C2C3C(=O)N(C(C)(C)C)C(=O)C3[C@]3(Cc4ccccc4)C(=O)N(c4ccc(OC)cc4)C(=O)N23)cc1 (stereo partly specified)	-4.9	/	/	13.3	6.7	/	5.9
Cc1ccc(S(=O)(=O)N2CCC(C(=O)Nc3ncccc3O)CC2)cc1	1.6	/	-8.0	10.5	1.1	3141	1.8
O=C(COC(=O)c1ccc([N+](=O)[O-])o1)c1ccccc1	1.4	5.2	-6.9	11.1	4.5	2147	1.7
O=c1nccc(NN=Cc2ccccc2O)[nH]1	2.6	/	/	5.1	4.1	/	2.1
COc1ccc(CCNC(=O)Cn2cnc3c(nnn3Cc3ccc(C)cc3)c2=O)cc1OC	3.6	-11.2	-15.5	2.3	0.8	5847	0.5
COc1cccc(N2C(=O)c3ccncc3C2=O)c1	0.5	-4.6	-10.5	/	/	4880	2.7
